Ecoli growth: E. coli growth inhibition. Escherichia coli growth, OD600, 23 h; active compounds read low. OD600 absorbance (concentration not given with the values). hit rate 0.21% among 330,000. AID 1053175;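 active = OD600 absorbance below the run mean of sample wells minus 3.6 SD, in any replicate, cut at about 0.56 in these data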;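 also: stock transfer was 300 nL into about 60 µL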
Vif TR-FRET: HIV-1 Vif–A3G interaction blockers – biochemical, TR-FRET, GST-Vif 1-94, biotin-A3G peptide, dose response retest, primary screen (AID 1117319); TR-FRET GST-Vif / biotin-A3G peptide binding; higher % means a stronger effect; test concentration not given here; strong numbers were not always called active; one-dose inhibition, %; IC50 in µM for titrated hits; hit rate 0.57% among 260,000;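 active = above the screen mean plus three standard deviations and confirmed in dose response; inconclusive = results disagree or hit not tested in dose response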;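 also: Vif residues 1-94 fused to GST binding biotinylated APOBEC3G peptide 110-148; 0% = full assay without inhibitor and 100% = GST in place of GST-Vif; retest series ran down from 100 µM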
UCH37 DUB inh: blocks the human deubiquitinase UCH37. purified proteasome/UCH37, Ub-AMC cleavage fluorescence. hit rate 0.33% among 330,000. inhibition, % (test concentration not listed). AID 588478;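 active = mean of two replicates above 20%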;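 also: 0% = compound-free wells with enzyme and 100% = wells lacking proteasome; stock transfer was 100 nL into about 20 µL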
Target sequence (Q9Y5K5 whole entry, looked up): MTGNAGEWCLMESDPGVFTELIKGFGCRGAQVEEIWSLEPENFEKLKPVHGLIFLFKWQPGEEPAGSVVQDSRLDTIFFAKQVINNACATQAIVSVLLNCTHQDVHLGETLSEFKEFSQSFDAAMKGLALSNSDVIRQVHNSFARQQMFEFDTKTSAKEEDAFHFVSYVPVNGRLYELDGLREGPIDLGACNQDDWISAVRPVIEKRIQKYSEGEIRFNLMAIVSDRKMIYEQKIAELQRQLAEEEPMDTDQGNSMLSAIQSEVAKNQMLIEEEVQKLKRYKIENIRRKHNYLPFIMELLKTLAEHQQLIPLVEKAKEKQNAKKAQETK
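Material: Human UCH37 enzyme supplied as purified proteasome complex | Schedule: 30 min preincubation with enzyme, 25 min cleavage at room temperature | Detection: AMC fluorescence 355/460 nm | Measure: % inhibition of Ub-AMC cleavage fluorescence | Controls: Wells without proteasome as full block, compound-free enzyme plus substrate as uninhibited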
B2AR ag: human beta-2 adrenergic receptor agonism by FAP; hit rate 0.43% among 340,000; response, % (no concentration beside the values); Am2.2-beta2AR cells, FAP receptor internalization, flow cytometry; reference of the scale not given here; P07550;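 active = response above a set limit, near 3 SD of response in nonfluorescent compounds, cut at about 42% in these data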;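 also: stock transfer was 100 nL into about 11 µL; a reference agonist was the positive control; negative values mostly stem from fluorescent compounds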
Bfl-1 A1 inh: inhibitors of the anti-apoptotic protein A1, read as caspase activation. MEF A1-2A-BIM cells, Caspase-Glo 3/7 luminescence, 3 h; percent of clofoctol response, vehicle zero. hit rate 0.066% among 330,000. caspase activation, % (test concentration not listed);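 active = over half of replicate activation scores above 10%, or exactly half above 10 with the replicate mean above 10; inconclusive = replicate mean below 10 yet half the replicates above 10; inactive = over half of replicates below 10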;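 also: wells of about 30 µL received 50 nL stock; many hits fall short of the cut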
LANA-H2A inh: blocks KSHV LANA binding to histone H2A/H2B; cell-free LANA-H2A/H2B peptide, fluorescence polarization; inhibition, % (concentration not given with the values); hit rate 0.6% among 320,000; in the data active = inhibition mostly above about 10%, no sharp cut-off; inactive = mostly below about 6.7%;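 also: stock transfer was 7.5 nL into about 10 µL; 0% = median of vehicle wells and 100% = median of positive control wells; one replicate is shown; the record names a cut of 25% in any replicate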
HNF4A DNA FP: change in binding of human HNF4 alpha to DNA. P41235. HNF4a-FITC DNA binding, fluorescence polarization, 1 h. activity change, % at 10 µM. hit rate 0.3% among 360,000; in the data active = activity change above about 30%, passing the limit was not always enough;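 also: controls were the assay level and a saturating level of protein; the project sought stronger binding though the title names inhibitors; some compounds called inactive have numbers as strong as hits; positive values seem to mean higher polarization but the record does not say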
Target sequence (P41235 whole entry, looked up): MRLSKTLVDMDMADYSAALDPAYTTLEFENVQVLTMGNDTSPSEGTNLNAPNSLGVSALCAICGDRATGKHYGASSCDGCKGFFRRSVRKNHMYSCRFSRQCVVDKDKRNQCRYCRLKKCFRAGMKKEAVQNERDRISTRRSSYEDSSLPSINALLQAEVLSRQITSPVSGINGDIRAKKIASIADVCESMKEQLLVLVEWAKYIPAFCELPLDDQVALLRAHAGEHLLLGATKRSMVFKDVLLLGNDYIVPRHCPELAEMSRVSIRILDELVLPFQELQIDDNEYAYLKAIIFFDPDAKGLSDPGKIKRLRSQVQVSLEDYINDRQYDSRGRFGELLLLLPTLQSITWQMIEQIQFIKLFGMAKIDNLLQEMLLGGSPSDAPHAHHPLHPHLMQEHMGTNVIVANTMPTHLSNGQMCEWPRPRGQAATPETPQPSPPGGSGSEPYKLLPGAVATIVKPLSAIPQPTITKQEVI
An asterisk follows results filed as active; ? = inconclusive; nt = no result given; & = joins results of further samples.

Compound	Ecoli growth	Vif TR-FRET	UCH37 DUB inh	B2AR ag	Bfl-1 A1 inh	LANA-H2A inh	HNF4A DNA FP
O=C(NCCc1csc(-c2cccnc2)n1)c1cccc(Cl)c1	0.69	-9%	3.1	4	0.7	-4.0	0.7
CCOC(=O)COc1ccsc1C(=O)OC	0.69	2%	-1.4	-1	-0.1	0.9	1.1
Clc1ccc(-c2ncc3ccccn23)c(Cl)c1	0.65	-3%	-9.0	5	-0.2	3.9	3.9
CC(=O)Nc1ccc(OCc2cccc([N+](=O)[O-])c2)cc1	0.68	-2%	2.2	1	-5.3	1.5	-0.3
CCCn1c(CN2CCN(C(C)=O)CC2)nc2cc(S(=O)(=O)N(C)C)ccc21	0.69	nt	4.7	10	-0.8	-6.2	4.3
Cc1cc(C(=O)NNC(=O)NC(C)C)no1	0.7	17%	1.9	6	0.7	7.5	-3.3
CC(C)C(=O)Nc1ccnc(-c2cccnc2)n1	0.73	1%	5.0	0	0.2	-1.8	-0.7
Cc1nc(Cl)c2oc3ccccc3c2n1	0.72	5%	1.4	18	-1.4	3.5	0.2
NS(=O)(=O)c1ccc(NC(=O)CSc2nc3c(c(=O)[nH]2)CCCC3)cc1	0.69	?	4.4	4	-0.3	-4.6	1.2
CN(Cc1ccccc1)S(=O)(=O)c1cn(C)cn1	0.69	0%	1.8	-2	0.7	2.4	3.7
COC(C(=O)NC(C(C)C)C(C)C)c1ccccc1 (stereo not drawn)	0.72	-3%	-1.3	1	-0.8	-4.3	2.8
S=c1nc(-c2ccccc2)n(CCCN2CCOCC2)c2c1CCCC2	0.72	-2%	8.5	1	0.4	0.3	-0.8
C[C@@H](C(=O)N[C@@H](Cc1c[nH]c2ccccc12)C(=O)O)n1nnc2ccccc2c1=O	0.71	-9%	3.8	20	0.2	1.9	-0.8
O=C(c1cnccn1)N(Cc1ccco1)C1(C(=O)NC2CCCCC2)CCCCC1	0.69	4%	1.7	6	-0.3	4.9	-1.9
Cc1ccc(C(C)C)cc1OCCOCCN1CCCC1	0.7	9%	2.5	3	0.6	3.4	-2.2
C=CCNC(=O)c1c(CSc2ccc(Cl)cc2)noc1C(=O)NCCC	0.66	nt	1.1	1	0.5	2.5	-3.3
CCOC(=O)C1CCN(c2ncnc3nc[nH]c23)CC1	0.68	1%	5.6	11	0.7	0.8	0.9
O=C(CC1CCCC1)Nc1ccc2c(c1)CCC2	0.7	2%	1.3	11	-2.2	-2.6	-3.0
N=c1c2c3c(sc2ncn1N)CCC3	0.63	13%	-2.1	-11	0.3	-2.8	0.9
COc1ccc(C(=O)NNC(=O)CCn2nnc(-c3ccc(Cl)cc3)n2)cc1OC	0.68	nt	1.1	0	0.2	0.5	-0.4

Some of these compounds in order of the UCH37 DUB inh value, lowest first.
| SMILES | Vif TR-FRET | UCH37 DUB inh | B2AR ag | LANA-H2A inh | HNF4A DNA FP |
| --- | --- | --- | --- | --- | --- |
| O=C(CC1CCCC1)Nc1ccc2c(c1)CCC2 | 2% | 1.3 | 11 | -2.6 | -3.0 |
| CN(Cc1ccccc1)S(=O)(=O)c1cn(C)cn1 | 0% | 1.8 | -2 | 2.4 | 3.7 |
| CCOC(=O)C1CCN(c2ncnc3nc[nH]c23)CC1 | 1% | 5.6 | 11 | 0.8 | 0.9 |

(more compounds)
Compound	Ecoli growth	Vif TR-FRET	UCH37 DUB inh	B2AR ag	Bfl-1 A1 inh	LANA-H2A inh	HNF4A DNA FP
COC(=O)CC(NS(=O)(=O)c1cccs1)c1ccc2c(c1)OCO2 (stereo not drawn)	0.64	nt	-1.3	6	-0.8	0.1	1.5
COc1ccc(C2/C(=C(/O)c3ccc(Cl)cc3)C(=O)C(=O)N2CCN2CCOCC2)c(OC)c1 (stereo not drawn)	0.74	21%	12	2	0.7	-4.4	0.8
O=C(O)CCCCCN=Cc1c(O)c2ccccc2oc1=O	0.7	10%	5.5	3	0.0	-5.5	-6.2
O=C(NCc1csc(-c2cccs2)n1)C1CC1	0.62	nt	-12	1	-0.5	1.1	3.7
Nc1ncnc2c1ncn2C1OC(COP(=O)(O)O)C(O)C1O (stereo not drawn)	0.66&0.68	nt	-1.1	1	-0.2	-1.5	3.1
COc1ccc(NC(=O)[C@@]2(CC(=O)O)CC(/C=C/c3ccccc3)=NO2)cc1	0.63	0%	1.1	0	-0.1	5.9	3.4
COc1ccc(-c2cc(-c3ccccc3O)[nH]n2)cc1OC	0.71	6%	2.1	-1	-2.0	-6.0	-4.5
COc1ccc(N2CCC(CNC(=S)Nc3cc(C)ccc3C)C2)cc1 (stereo not drawn)	0.66	4%	1.1	4	0.2	-2.2	4.4
COc1cc(/C=C/C(=O)OCC(=O)NNC(=O)c2cc(Cl)ccc2OC)ccc1O	0.65	nt	-3.1	13	-0.1	1.4	2.9
O=C(O)CCc1ccc(S(=O)(=O)Nc2ccccc2C(=O)NCCc2ccccc2)cc1	0.67	-2%	-5.4	0	1.1	-4.2	-2.1
CC(=O)c1cc(C(=O)N2CCc3c([nH]c4ccccc34)C2CC(C)C)[nH]n1 (stereo not drawn)	0.73	-1%	-0.6	-4	0.7	2.4	1.5
Cc1ccc(S(=O)(=O)NNC(=O)c2cc(C)c(C)cc2N)cc1	nt	-4%	nt	0	nt	nt	2.5
COc1ccc2nc(NS(=O)(=O)c3ccc(NC(C)=O)cc3)sc2c1	0.68	20%	3.2	1	1.2	-4.5	-1.1
CCOc1cccc(/C=N/NC(=S)Nc2ccccc2[N+](=O)[O-])c1O	nt	17%	nt	0	-6.3	0.4	2.1
Cc1cc(O)cc(O)c1-c1onc(C(F)(F)F)c1-c1cscn1	0.7	11%	-3.9	1	-0.1	0.4	-1.1
COc1ccc(NC(=O)COc2ccccc2Cl)cc1S(=O)(=O)N1CCCCC1	0.69	12%	4.2	10	nt	nt	0.6
CCOC(=O)Cc1cnc(NC(=O)CSc2nc(N)cc(N)n2)s1	0.67	3%	-0.2	-5	0.4	0.1	-4.7
CCN(CC1CCCN(CCc2cccc(OC)c2)C1)C(=O)c1ccoc1C (stereo not drawn)	0.72	nt	3.5	-4	0.4	-11	3.7
CCCN(CCC)CCNC(=O)c1cc2c(-c3ccccc3F)nn(C)c2s1	0.63	nt	-33	7	-0.3	0.3	-3.5
COc1ccc(C(=O)Cn2c(NCCO)nc3ccccc32)cc1OC	0.69	-1%	4.3	1	0.3	-0.3	-5.2
COc1ccc(NC(=O)CSc2nnc(Cc3ccccc3)c(=O)n2N)cc1	0.69	4%	0.4	6	-1.0	3.5	2.6
O=C1CCCN2N=C(SCC(=O)N3N=C(c4ccc(Br)cc4)CC3c3ccc(F)cc3)SC2=N1 (stereo not drawn)	0.73	1%	0.7	-6	2.1	3.6	-0.8
CC(OC(=O)Cn1cnc2c1c(=O)n(C)c(=O)n2C)C(=O)NC(C)c1ccc(Cl)cc1Cl (stereo not drawn)	0.69	3%	5.3	-1	0.1	-0.3	0.1
O=C(NN1CCOCC1)c1cnn2c(C(F)F)cc(-c3ccccc3)nc12	0.68	-2%	7.0	1	1.5	0.6	6.2
COc1ccc(CN(C)CC(=O)Nc2cccc(S(=O)(=O)N3CCCC3)c2)cc1F	0.69	nt	-1.3	4	-0.2	-1.1	-3.0
CCn1c(CSCc2ccc(F)cc2)nnc1SCC(=O)N1CCN(c2ccccc2)CC1	0.68	6%	6.6	-12	-0.1	-1.7	3.3
COC(=O)c1ccccc1NC(=O)c1noc2c1CCC2	0.7	26µM*	1.3	-2	0.6	-6.0	-17
COc1ccc(C(=O)NCC(=O)n2nc(C)cc2C)cc1OC	0.71	0%	1.8	1	-0.1	2.2	2.3
CC(C)c1onc(C(=O)NCc2ccccc2)c1[N+](=O)[O-]	0.64	nt	-2.2	0	0.0	1.5	1.4
CCCCOC(=O)CCc1c(C)[nH]c(=O)c(C#N)c1C	0.74	6%	0.9	8	-0.6	0.3	1.7
COC(=O)c1cc(C(=O)OC)cc(N2C(=O)CC(Sc3nc(C)cc(C)n3)C2=O)c1 (stereo not drawn)	0.75	26%	0.1	4	0.2	-4.6	1.5
CN(C)S(=O)(=O)c1cccc(NC(=O)Cc2ccsc2)c1	0.66	nt	1.3	-4	-0.3	-1.5	0.3
CCc1ccccc1NC(=O)c1cc(S(=O)(=O)N(C)C)ccc1N1CCCC1	0.7	nt	5.5	2	-0.1	-2.6	-0.5
C=CCOc1ccc2ccccc2c1CNn1cn[nH]c1=S	0.67	nt	6.1	13	-1.1	-2.1	1.6
Cc1ccc(N2C(=O)[C@@H]3Cc4ccccc4CN3C2=O)cc1	0.72	-7%	1.7	6	-0.6	2.6	4.5
CN(Cc1nccs1)C(=O)C1CCC(=O)N(CCc2cccc(F)c2)C1 (stereo not drawn)	0.66	-1%	-0.3	-6	0.0	-3.6	-0.6
Cc1ccc(S(=O)(=O)Cc2ccc(C(=O)N3CCN(c4cc(C)ccc4C)CC3)o2)cc1	0.71	2%	7.9	3	0.8	-2.1	-1.1
Cc1cccc(C(=O)NNC(=O)c2ccc3ccccc3c2)c1	0.66	-5%	-0.3	0	nt	nt	1.0
Cc1ccc(N(C(=O)Cn2nnc3ccccc32)C(C(=O)NCc2ccccc2)c2ccccn2)cc1 (stereo not drawn)	0.68	-2%	1.5	0	-0.8	-1.8	0.2
CCc1nc(SCC(=O)c2ccc(C)c(C)c2)n[nH]1	0.65	?	4.7	-2	2.4	4.1	-1.8
CN(C)CC1CCC/C(=C\c2ccc(OC(=O)/C=C/c3ccc(Cl)c(Cl)c3)cc2)C1=O (stereo not drawn)	nt	3%	nt	19	nt	nt	1.1
CCC(=O)c1ccc(OC(=O)Cc2ccc(OC)cc2)cc1	0.67	nt	0.4	-4	-1.0	3.0	-0.8
CSc1ccccc1C(=O)N1CCN(c2ncccn2)CC1	0.7	nt	-5.0	-4	0.1	2.2	-1.1
c1coc(-c2nnc3sc(-c4cccs4)nn23)c1	0.65	11%	6.7	-3	0.0	0.5	-3.0

Structures listed above printed as active in Vif TR-FRET.
SMILES,Vif TR-FRET,UCH37 DUB inh,B2AR ag,LANA-H2A inh,HNF4A DNA FP
COC(=O)c1ccccc1NC(=O)c1noc2c1CCC2,26µM*,1.3,-2,-6.0,-17
